HPGD block = blocks human HPGD enzyme activity; Potency, µM, for inactives: top-dose activity change, negative = inhibition, hits mostly inhibitors; AID 894; 4.3% of 150,000 active; purified HPGD, NADH fluorescence kinetic, PGE2 substrate; active = well fitted inhibition curve with a large enough effect (not every such curve was filed as active); inconclusive = small, poorly fitted or top-dose-only effect, or another doubt; inactive = no such curve, though single readings can be large or run the other way;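 note: top concentration of the series not given in the record; plate controls included wells without enzyme; inactives centre near -10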
Target sequence (P15428 whole entry, looked up): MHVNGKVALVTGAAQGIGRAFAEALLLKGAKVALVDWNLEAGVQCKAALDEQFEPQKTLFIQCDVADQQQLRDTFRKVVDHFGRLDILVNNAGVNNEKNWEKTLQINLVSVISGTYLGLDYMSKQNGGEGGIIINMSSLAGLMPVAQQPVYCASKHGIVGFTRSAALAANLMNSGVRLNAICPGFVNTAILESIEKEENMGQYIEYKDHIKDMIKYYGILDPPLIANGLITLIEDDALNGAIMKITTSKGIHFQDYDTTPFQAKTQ
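20 nM HPGD preincubated 15 min at room temperature with compound in 50 mM Tris-HCl pH 8, 0.01% Tween 20. Started with 1 mM NAD+ and 30 uM prostaglandin E2; NADH fluorescence (360/450 nm) read 5 times over 30-s intervals, last minus first.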
* marks the source's active call; other numbers are inactive results; ? = inconclusive. % is set by controls: 0 for no effect and ±100 for the full control effect; potency is the fitted concentration of half-maximal effect.

| mol | HPGD block |
| --- | --- |
| COc1ccc(-c2cc(C(F)F)n3ncc(C(=O)NCC4CCCO4)c3n2)cc1 (stereo not given) | ? |
| COCC(=O)N1CCC2(CC1)CCN(c1cccc(-c3ccccc3)c1)CC2 | -14% |
| O=C(/C=C/c1ccco1)Nc1ccc(Oc2ccc(Cl)cc2)cc1 | -11% |
| CCOC(=O)C(Cc1ccccc1)C(=O)Nc1ccc(N(CC)CC)cc1 (stereo not given) | -13% |
| CC1CCc2nc(N)c(C#N)c(-c3cccn3C)c2C1 (stereo not given) | 4% |
| CCOc1ccc(-c2csc(/C(C#N)=C\c3ccc(O)c([N+](=O)[O-])c3)n2)cc1 | 3.2µM* |
| COc1ccc(/C=N\NC(=O)c2sc(N)nc2C)cc1OC | -17% |
| CCCOC(=O)Nc1sc2c(c1C(=O)OCC)CCC2 | -9% |
| CC(C)(C)c1cc(C(c2cccnc2)N2CCN(CCO)CC2)cc(C(C)(C)C)c1O (stereo not given) | 14µM* |
| CC1=CC(c2ccc(Cl)cc2)n2nc(NS(=O)(=O)c3ccc(C)cc3)nc2N1 (stereo not given) | ? |
| O=C1C2ON(c3ccccc3)C(c3cccnc3)C2C(=O)N1c1ccccc1 (stereo not given) | -5% |
| CCOC(=O)c1ccc(S(=O)(=O)N2CCNCC2)cc1 | -12% |
| CCc1ccccc1NC(=O)c1cc2sccc2n1C | -29% |
| CCc1cc(C(=O)NNC(=S)NCC2CCCO2)cs1 (stereo not given) | -4% |
| CCOC(=O)c1cnc(-n2cc(C)cn2)nc1Nc1ccccc1OCC | -10% |
| O=C1c2ccccc2C(=O)N1OCCOCCOCCON1C(=O)c2ccccc2C1=O | -6% |
| CN(C)CCCOc1ccc(C(C)(C)c2ccccc2)cc1 | 0% |
| CCOC(=O)N1[C@@H]2C=C(C)[C@@H]2[C@@H]2[C@@H](C)C(=O)N21 | 3% |
| CN1C(=O)/C(=C/c2cn(CC(=O)N3CCCCC3)c3ccccc23)c2ccccc21 | -2% |
| CCCCCCN1C=CC=C/C1=C/C=C(C#N)C#N | 11µM* |
| N#C/C(C(=O)Oc1ccccc1)=C1\C=CC=CN1 | -2% |
| Cc1c(Br)c(C(=O)NCc2cc3cc(Cl)ccc3[nH]2)nn1C | -20% |
| Cc1onc(C(=O)N2CCN(Cc3ccccc3)CC2)c1[N+](=O)[O-] | -2% |
| N[C@@H](CSC1(c2ccc(Cl)cc2)c2ccccc2-c2ccccc21)C(=O)O | -6% |

Arranged by number of heavy atoms (ascending): some entries from above
| mol | HPGD block |
| --- | --- |
| CCOC(=O)N1[C@@H]2C=C(C)[C@@H]2[C@@H]2[C@@H](C)C(=O)N21 | 3% |
| CCCCCCN1C=CC=C/C1=C/C=C(C#N)C#N | 11µM* |
| Cc1onc(C(=O)N2CCN(Cc3ccccc3)CC2)c1[N+](=O)[O-] | -2% |
| N[C@@H](CSC1(c2ccc(Cl)cc2)c2ccccc2-c2ccccc21)C(=O)O | -6% |
| CN1C(=O)/C(=C/c2cn(CC(=O)N3CCCCC3)c3ccccc23)c2ccccc21 | -2% |
| O=C1c2ccccc2C(=O)N1OCCOCCOCCON1C(=O)c2ccccc2C1=O | -6% |

Continuation:
| mol | HPGD block |
| --- | --- |
| CCn1nnnc1SCC(=O)Nc1ccc2c(c1)OCO2 | 3% |
| Cc1ccc(NC(=O)/C(=C/c2ccco2)c2ccccc2)c(C)c1 | -12% |
| CN1/C(=C\C(=O)c2cccnc2Cl)C(C)(C)c2ccccc21 | -13% |
| Cc1cccc(-c2nc3ccccc3c(=O)n2NC(=O)c2cccnc2Cl)c1 | -10% |
| CC(C)(C)C(=O)NC(NC(=S)Nc1ccc(S(N)(=O)=O)cc1)C(Cl)(Cl)Cl (stereo not given) | 0% |
| CN(C)C(=O)N1CCC(C(=O)NCc2cccs2)CC1 | -8% |
| O=C(NCc1ccco1)c1ccc(CS(=O)(=O)Cc2ccc(Cl)cc2)o1 | -4% |
| S=c1[nH]nc(Cc2cccs2)n1-c1cccc2ccccc12 | 25µM* |
| Cc1c(NC(=O)c2ccccc2)c(=O)n(-c2ccccc2)n1C | -3% |
| Cn1cnnc1Sc1ccc(C(=O)NCCC(c2ccccc2)c2ccccc2)cc1[N+](=O)[O-] | -20% |
| O=C(Cc1ccc2c(c1)CCCC2)Nc1ccc2ccccc2c1 | ? |
| CC(C)n1c(SCC(=O)Nc2nc3c(s2)CCCC3)nc2c1c(=O)n(C)c(=O)n2C | -16% |
| CCn1c(SCC(=O)N2CC(=O)Nc3ccccc32)nnc1-c1ccoc1C | -18% |
| CCOC(=O)C1CCCN(CCC(C)c2ccccc2)C1 (stereo not given) | 6% |
| CCn1nnnc1SCC(=O)N1CCCc2ccccc21 | -10% |
| COc1ccccc1C(=O)NCC1CCN(c2ccc(S(=O)(=O)N3CCOCC3)cc2)CC1 | ? |
| COc1ccc(Br)cc1CNC(=O)CCc1nc(-c2ccc(C)cc2)no1 | -10% |
| C=CCN1c2ccccc2[C@]23C[C@@H](C(=O)OC)N(S(=O)(=O)c4c(C)noc4C)C2=NC(C(=O)OC)=C(C(=O)OC)[C@H]13 | 3% |
| CCCCc1nnc(NC(=O)C2CCCO2)s1 (stereo not given) | -5% |
| Cc1ccc(S(=O)(=O)N/N=C/c2cn(C)nc2C)cc1 | -1% |
| CCn1c(C)nc2cc(C(=O)NNC(=S)Nc3ccc(Cl)cc3Cl)ccc21 | ? |
| CC(N)C12CC3CC(CC(C3)C1)C2 (stereo not given) | -8% |
| CCCCCC(=O)Nc1ccc(Cl)cn1 | -14% |
| O=C(c1c(F)cccc1F)N(Cc1ccccn1)C1CCCC1 | -5% |
| CN(C1CCCCC1)S(=O)(=O)c1ccc(NC(=O)CCC(=O)O)cc1 | -26% |
| Cc1ccc(CSc2nnc(-c3cccnc3)n2N)cc1 | -12% |
| COc1ccc(NS(=O)(=O)c2ccc(NC(=O)C(C)(C(F)(F)F)C(F)(F)F)cc2)nn1 | -19% |
| CC(=O)OC1COC(n2ccc3ccccc32)C(OC(C)=O)C1OC(C)=O (stereo not given) | -7% |
| CCOC(=O)C1CCCN(C(=O)CN2C(=O)C(CC)Oc3ccc(C)cc32)C1 (stereo not given) | -3% |
| COc1cc(CN2CCN(C(=O)CC(C)C)CC2)cc(OC)c1OC | -4% |
| O=C(Nc1nc2ccccc2[nH]1)c1ccccc1 | 1% |
| CCOC(=O)NC1CCS(=O)(=O)C1 (stereo not given) | -8% |

Overlap with the part before: two compounds, then new ones.
| mol | HPGD block |
| --- | --- |
| O=C(Nc1nc2ccccc2[nH]1)c1ccccc1 | 1% |
| CCOC(=O)NC1CCS(=O)(=O)C1 (stereo not given) | -8% |
| O=C1c2ccccc2-c2ncnc3c(N4CCOCC4)cc(N4CCOCC4)c1c23 | 3% |
| O=C(Nc1ccc2c(c1)OCCO2)c1cccc(S(=O)(=O)N2CCCCC2)c1 | -8% |
| CCn1c(SCC(=O)Nc2cc(C)on2)nc2c(c1=O)SC(C)C2 (stereo not given) | -6% |
| Cc1nnc(Oc2ccccc2F)c2ccccc12 | -13% |
| O=C(c1ccc([N+](=O)[O-])cc1)N(Cc1ccc(Cl)cc1)N1C(=O)CCCC1=O | -12% |
| COc1ccc2c(c1)C(NC(C)=O)C(=O)N2C (stereo not given) | 2% |
| COc1cc(C2C(C#N)=C(N)N(c3cccnc3)C3=C2C(=O)CCC3)ccc1O (stereo not given) | -5% |
| CCOC(=O)c1cccc(NC(=O)CCS(=O)(=O)c2ccc(Br)s2)c1 | 10% |
| CCOC(=O)c1c(N=CN(C)C)c(C#N)c2n1CCCC2 | -7% |
| CC(C(=O)O)c1n[nH]c(=O)c2ccccc12 (stereo not given) | -2% |
| CC(C)c1ccc(NC(=O)COC(=O)C2=COCCO2)cc1 | 0% |
| CCc1ccc(NC(=S)N(CCN2CCCCC2)Cc2ccco2)cc1 | -12% |
| CC(C)[C@H](N=Cc1ccccc1O)C(=O)O | -4% |
| COc1ccc(CN(C(=O)CSc2nnc(-c3c[nH]c4ccccc34)o2)c2ccc(F)cc2)cc1OC | -17% |
| COc1ccc2oc(-c3ccccc3)c(OC)c(=O)c2c1 | ? |
| COc1ccc(-c2cc(=O)c3ccccc3o2)cc1 | ? |
| COc1ccc(C2C(C#N)=C(SCC(=O)Nc3ccc(C)cc3)NC3=C2C(=O)CC(C)(C)C3)cc1 (stereo not given) | ? |
| CC(=O)N1CCC2(CCCN(Cc3nccs3)C2)CC1 | -6% |
| Cc1nn(-c2ccccc2)c2sc(C(=O)NNC(=O)COc3cccc4ccccc34)cc12 | -13% |
| Cc1ccc(S(=O)(=O)c2c(C)nn(-c3ccccc3)c2OC(=O)c2ccco2)cc1 | -18% |
| Cc1ccc(OCC(=O)N/N=C/c2ccco2)cc1 | -24% |
| O=S(=O)(N/N=C\c1ccc2c(c1)OCO2)c1ccc(Cl)cc1 | -4% |
| CCOc1ccc(NC(=O)c2cccc3c2C(=O)N(Cc2cccnc2)C3)cc1 | -5% |
| O=C(OCc1cc(Cl)ccc1OC(F)F)c1cc(S(=O)(=O)O)ccc1O | -16% |
| O=C1N=c2ccccc2=C1c1[nH]c(=S)[nH]c1O | -26% |
| C=CCn1c(=N)c(C(=O)OCC)cc2c(=O)n3cc(C)ccc3nc21 | ? |
| O=C(NCC1CCCO1)NC12CC3CC(CC(C3)C1)C2 (stereo not given) | -7% |
| Cc1ccc(Cl)cc1NC(=O)Cn1cc(C(F)(F)F)cc(Cl)c1=O | -9% |
| COc1cc2c(cc1OC)C1(O)C(=O)c3ccc(O)c(C(=O)O)c3OC1CO2 (stereo not given) | -14% |
| Cc1ccc(NC(=O)c2ccc(-n3cccn3)c([N+](=O)[O-])c2)cc1 | -18% |
| C=CCN1C(=O)c2ccccc2Sc2ccc(C(=O)N3CCN(C)CC3)cc21 | -14% |
| CCc1nc2ccc(C(=O)Nc3ccc(NC(C)=O)cc3)cc2nc1CC | -2% |
| O=C(Nc1ccc(N2CCOCC2)cc1)c1cccc(S(=O)(=O)N2CCCC2)c1 | -16% |
| CNNC(=O)C(C)NC(=O)c1ccc(Br)cc1 (stereo not given) | -7% |
| O=C(c1csnn1)N1CCC2(CCN(Cc3ccccc3)CC2)CC1 | -9% |
| CCn1c(SCC(=O)Nc2nccs2)nnc1-c1ccc(S(=O)(=O)N2CCCCC2)cc1 | -16% |
| COc1ccc(NC(=O)/C(C#N)=C/c2c(C)nn(-c3ccc(F)cc3)c2Cl)cc1OC | -25% |
| Cc1cc(NC(=O)C2CCCC2)nc2c1c(=O)oc1ccccc12 | -20% |
| CC(C)(C)c1ccc(-c2noc(CCC(N)=O)n2)cc1 | -16% |
| CCn1c(C(=O)NCc2ccccn2)cc2sccc21 | 18µM* |
| CCN(C(=S)NC(=O)CCc1ccccc1)c1ccccc1 | ? |
| O=C(Cn1nnc(-c2ccccc2)n1)N/N=C/c1cc([N+](=O)[O-])ccc1O | 14µM* |
| COc1cccc(C(=O)Nc2cccc(C(=O)N3CCOCC3)c2)c1 | -13% |
| Cc1csc(NC(=O)C(Cc2ccccc2)n2cccc2)n1 (stereo not given) | 2% |
| Cc1ccc(S(=O)(=O)N2CCCC2C(=O)Nc2ccc(O)cc2)cc1 (stereo not given) | 0% |
| CCOC(=O)CSc1ccc2nnc(-c3cccnc3)n2n1 | ? |
| CCn1cc(C2C3=C(CC(C)(C)CC3=O)N(c3ccccc3)C3=C2C(=O)CC(C)(C)C3)c(C)n1 | -10% |
| CCOC(=O)c1ccc[n+](CC(=O)c2ccccc2)c1 | -4% |
| COc1cccc(CNC(=O)c2ccc3nc[nH]c3c2)c1 | -14% |
| O=C(COC(=O)C1(c2ccccc2F)CCCC1)N1CCc2ccccc21 | -7% |
| CCOC(=O)CSc1nnc(CNc2ccccc2Cl)n1-c1ccccc1 | -3% |
| CCOC(=O)C1/C(=N\O)CC(C)(O)C(C(=O)OCC)C1c1ccc(N(C)C)cc1 (stereo not given) | 2% |
| Cc1c(Cl)cccc1Nc1ccccc1C(=O)O | 14µM* |
| c1cncc(CNc2nc(N3CCOCC3)nc(N3CCOCC3)n2)c1 | -1% |
| O=C(NC1CCCCC1)C(c1ccncc1)N(Cc1ccccc1)C(=O)c1ccc(-c2ccccc2)[nH]1 (stereo not given) | -17% |
| CSCC[C@@H](Nc1nc(-c2ccccc2)nc2c1oc1ccccc12)C(=O)O | -12% |

(listing goes on)
| mol | HPGD block |
| --- | --- |
| OC(COc1ccc(Br)cc1)CN1CCOCC1 (stereo not given) | -5% |
| S=c1[nH]nc(-c2cc(-c3ccco3)[nH]n2)n1-c1cccc2ccccc12 | 11µM* |
| CSc1ccc(/C=N/NC(=O)c2ccc(C)c(C)c2)cc1 | ? |
| CCn1c(SCC(=O)Nc2cccnc2Cl)nnc1-c1ccccc1 | -3% |
| COc1ccc(N2CCN(C(=O)Nc3cccc(C(F)(F)F)c3)CC2)cc1 | -2% |
| CCOC(=O)c1ccc(NC(=O)COc2ccc(S(=O)(=O)N3CCCC3)cc2)cc1 | -15% |
| CCOc1ccccc1N1CCN(C(=O)c2ccccc2)CC1 | -14% |
| CC1(C(=O)N2CC3(CC(c4cccc([N+](=O)[O-])c4)=NO3)C[C@H]2C(=O)NCC(N)=O)CC1 (stereo not given in full) | -6% |
| Cc1cc([N+](=O)[O-])c(N2CCC[C@@H]2C(=O)O)c([N+](=O)[O-])c1 | -13% |
| Cc1cccc(-n2nnnc2SCc2csc(-c3ccccc3)n2)c1 | ? |
| O=C(CSc1nnc(-c2cnccn2)n1Cc1ccco1)c1ccc2ccccc2c1 | -4% |
| CC(=O)NC1(C(F)(F)F)C(=O)Nc2c1c(=O)[nH]c(=O)n2Cc1ccco1 (stereo not given) | -22% |
| NC(N)=N[C@@H](CCC(=O)O)C(=O)O | -8% |
| CCCn1cc(SCC(=O)Nc2ccc3c(c2)OCO3)c2ccccc21 | -5% |

Bioassay records deposited in PubChem by National Center for Advancing Translational Sciences (NCATS).

Some of the compounds tested; rates above refer to the full screens.
